H5N1 antiviral – MDCK cell protection from H5N1 avian flu; cytopathic effect, luminescence, 72 h; hits give high values; no value below 0 was filed and about half of the inactive calls have no number; reference of the scale not given here; hit rate 0.07% among 96,000; inhibition, % at 50 µM; in the data active means inhibition above about 25%
Starred values were filed as active, the others as inactive; i = inactive. This is a subset. The share of hits here may be higher or lower than overall.

SMILES	H5N1 antiviral
COc1cc(C(=O)OC2CCCCC2=O)cc(OC)c1C (stereo unspecified)	0.5
O=C(NCC1CCCO1)C1CC(=O)N(C2CCCC2)C1 (stereo unspecified)	i
COc1cc(/C=C2/SC(=S)N(CC(=O)Nc3nc4ccccc4s3)C2=O)cc(OC)c1OC	1.1
CCCCNS(=O)(=O)c1ccc(NS(=O)(=O)c2c(C)cc(C)cc2C)cc1	0.2
Cc1ccc(OCC(=O)OCC(=O)c2c(N)n(C)c(=O)n(C)c2=O)cc1C	0.4
Cc1ccc(C(=O)c2cn[nH]c2-c2ccccc2O)cc1	i
O=C(O)CCCSCC(=O)Nc1ccccc1	1.1
O=C(CCS(=O)(=O)c1cccc2nonc12)N1CC(=O)N(CCc2ccccc2)C(=O)C1	0.7
CCCOC(=O)c1[nH]c2c(c1C)C(=O)CC(c1cc(OC)c(OC)c(OC)c1)C2 (stereo unspecified)	i
CCN(CC)C(=O)C1CCCN(Cc2sccc2C)C1 (stereo unspecified)	i
CC(=O)CCc1c[nH]c2c(C(=O)O)cccc12	0.1
CCOC(=O)N1CCC(Nc2c(NCCN3CCN(c4ccccc4F)CC3)c(=O)c2=O)CC1	1.2
Cc1cc2cc(C=O)c(Cl)nc2cc1C	i
CCOc1ccc(-c2c(C#N)c(N)nc3c2c(=O)n(C)c(=O)n3C)cc1OC	1.0
COc1ccccc1NC(=O)NCCCN1CCN(c2cccc(Cl)c2)CC1	i
CCOC(=O)CCC(=O)Nc1ccc(S(=O)(=O)N2CCCC2)cc1	i
Cc1ccc(C)n1-c1cccc(N)c1	1.2
O=C1CCc2cc(S(=O)(=O)N3CCC(C(=O)NC4CCCCCCC4)CC3)ccc2N1	i
Cc1ccc(-n2c(-c3cccs3)nc3ccccc3c2=O)cc1	i
COc1ccc(S(=O)(=O)N(C)CC(=O)NCc2cccnc2)cc1C	i
Cn1cc(Cl)c(C(=O)Nc2cccc(Cl)c2Cl)n1	i
O=C(CCCN=C1NS(=O)(=O)c2ccccc21)OCC(=O)N1CCc2ccccc21	0.4
COc1ccccc1-c1cc(C(F)(F)F)nc(N2CCOCC2)n1	i
O=C1CC(=C(c2ccccc2)c2ccccc2)C(=O)N1CCN1CCN(c2cccc(Cl)c2)CC1	i
O=c1c2c(n3nnnc3n1-c1ccccc1)-c1ccccc1CC21CCCC1	i

Additional compounds.
SMILES	H5N1 antiviral
Cn1c(=O)oc2cc(C(=O)c3ccccc3)ccc21	i
O=C(O)c1cccc(NC(=O)C2CCCO2)c1 (stereo unspecified)	0.1
Cc1ccc2c(c1)N(CC(=O)OC(CC(C)C)C(=O)NC1CCCC1)C(=O)CO2 (stereo unspecified)	i
CN=C1c2cc3c(Br)c(OC)ccc3n2CCN1C	i
Cc1cc(S(=O)(=O)N2CC(=O)N(CCc3ccccc3)C(=O)C2)ccc1F	0.2
C=C(C)COc1ccc(-c2nc(N)ncc2Oc2ccc(OC)cc2)c(O)c1	1.5
O=C(c1ccc2c(c1)OCCO2)C1CCN(S(=O)(=O)c2ccccc2F)CC1	i
CCCOc1ccccc1C1CC(=O)NC2=C1C(=O)CCC2 (stereo unspecified)	i
Cn1c(SCC(=O)Nc2ccc3c(c2)OCCO3)nnc1-c1ccccn1	1.1
O=C(NCCCN1CCCC1)Nc1cccc2ccccc12	1.4
CCOc1ccc(-n2cnnn2)cc1S(=O)(=O)Nc1c(C)cccc1C	1.2
COc1ccc(CC[n+]2cc(/N=C(\C)[O-])on2)cc1OC	i
COc1ccc(OC)c(C(=O)c2nc3c(n2O)CCCCC3)c1	0.1
O=C(CCCCn1c(=O)[nH]c2ccccc2c1=O)N1CCN(c2cccc(C(F)(F)F)c2)CC1	3.3
Cc1cccc(N2C(=O)CC(N3CCN(c4ccccc4)CC3)C2=O)c1 (stereo unspecified)	0.1
Cc1nc2sc3c(c2c(=O)[nH]1)CCC3	i
CCSC1=NC(=O)/C(=C2/C=Cc3ccccc3N2CC)S1	i
Cn1c2ccccc2c2ncn(CCCN3CCOCC3)c(=O)c21	0.4
CC(C)c1ccc(NC(=O)C(c2ccc3c(c2)OCO3)N2CCN(C(=O)c3ccco3)CC2)cc1 (stereo unspecified)	i
Cc1cc(C)c(C#N)c(SCc2ccc(C#N)cc2)n1	i
CC1(C)Cc2c(C#N)c(NCCc3ccccc3)nc(-c3ccco3)c2CO1	0.8
Cn1c(Sc2ccc(Cl)cc2)c(C=O)c2ccccc21	i
Cc1cc(C)c2c(=O)[nH]n(C(C)C)c2n1	i
CCCS(=O)(=O)N1CCN(C(=O)CCC2CCCC2)CC1	0.4
N#CC1=C(N)OC2=C(C(=O)CC(c3ccco3)C2)C1c1ccc(OCc2c(F)cccc2Cl)cc1 (stereo unspecified)	i

Later entries
SMILES	H5N1 antiviral
C1CCN(c2nc3nonc3nc2N2CCCC2)C1	0.1
CC1CCCCC1NC(=O)CCS(=O)(=O)c1cccc2nonc12 (stereo unspecified)	0.3
Cc1ccc(Cn2c(CN3CC(C)OC(C)C3)nc3c2c(=O)n(C)c(=O)n3C)cc1 (stereo unspecified)	3.6
COc1ccc(OC)c(S(=O)(=O)N2CCC(C(=O)NCc3ccccc3)CC2)c1	i
CCn1c(SCc2nc3ccccc3[nH]2)nnc1-c1cnccn1	0.1
Nc1ccc2c3c(cccc13)CC2	i
CCOc1ccc(NS(=O)(=O)c2ccc(NC(C)=O)c(OC)c2)cc1	0.7
Cc1ccc(CNC(=O)c2ccc3c(=O)n(CC4CCCO4)c(=S)[nH]c3c2)cc1 (stereo unspecified)	i
Cc1cc(=O)[nH]c(SCC(=O)N2CCN(C(c3ccccc3)c3ccccc3)CC2)n1	1.9
O=S(=O)(NCC(O)COCc1ccco1)c1cccs1 (stereo unspecified)	i
COc1ccc(OC)c(S(=O)(=O)Nc2ccccc2SC)c1	i
COc1cccc(/C(O)=C2/C(=O)C(=O)N(CCN(C)C)C2c2ccc(Br)cc2)c1 (stereo unspecified)	i
CC(C)(C)c1ccc(Cn2nnc3c(=O)[nH]c(C4CCN(C(=O)Cc5cccs5)CC4)nc32)cc1	5.5
COc1ccc(C(=O)Nc2ccccc2N2CCN(C(=O)C(C)C)CC2)cc1Cl	i
O=C(COc1ccc(Cl)cc1)Nc1cnn(Cc2c(Cl)cccc2Cl)c1	i
CC(NC(=O)C1C(=O)N(CCO)C2(C)CC1c1ccccc1O2)c1ccccc1 (stereo unspecified)	i
O=C(CNS(=O)(=O)c1cccs1)N1CCC2(CC1)OCCO2	1.4
O=C(COc1ccc2ccc(=O)oc2c1)Nc1ccc2c(c1)OCCO2	i
Cc1ccc(-c2cccc(OC(=O)c3ccccc3F)c2)cc1	i
CC(=O)Nc1ccc(S(=O)(=O)N2CCC(NC(=O)c3ccco3)CC2)cc1	1.1
COC(=O)C1CCN(C(=O)c2cc3ccccc3oc2=O)CC1	i
N/C(=N\c1nc(CSc2ccc(Cl)cc2)cc(=O)[nH]1)Nc1cccc2ccccc12	i
COC(=O)CSc1nc2ncccc2[nH]1	0.6
CC1(C)OC(=O)C(=CNc2ccc(F)cc2)C(=O)O1	0.4
CCC1(C(=O)O)NC(c2cccc(OC)c2O)C2C(=O)N(c3ccccc3)C(=O)C21 (stereo unspecified)	0.2

Looked up by structure from above, 7 records:
SMILES	H5N1 antiviral
O=S(=O)(NCC(O)COCc1ccco1)c1cccs1 (stereo unspecified)	i
CC1(C)OC(=O)C(=CNc2ccc(F)cc2)C(=O)O1	0.4
O=C(CNS(=O)(=O)c1cccs1)N1CCC2(CC1)OCCO2	1.4
CCOc1ccc(NS(=O)(=O)c2ccc(NC(C)=O)c(OC)c2)cc1	0.7
COC(=O)C1CCN(C(=O)c2cc3ccccc3oc2=O)CC1	i
Cc1cc(=O)[nH]c(SCC(=O)N2CCN(C(c3ccccc3)c3ccccc3)CC2)n1	1.9
COC(=O)CSc1nc2ncccc2[nH]1	0.6

(cont.)
SMILES	H5N1 antiviral
COC(=O)Cn1c(CN2CCc3ccccc3C2)nc2c1c(=O)n(C)c(=O)n2C	3.6
OC(COc1ccc(C2C=CCC2)cc1)CN1CCCCC1 (stereo unspecified)	i
COc1ccc(C(=O)Nc2ccccc2C(=O)NCCN2CCOCC2)cc1	0.1
CCS(=O)(=O)c1ccc(O)c(NC(=O)COc2ccccc2)c1	0.8
Cc1cc(C)n(CCc2nc(-c3cccs3)cs2)n1	i
CC(C)CCSc1nnc(Cn2c(=O)sc3ccccc32)n1C	0.5
Cn1c(C(=O)N2CCN(C3CCCCC3)CC2)cc2c(=O)n(C)c3ccccc3c21	1.7
COc1ccccc1N1CCN(S(=O)(=O)c2ccc3c4c(cccc24)C(=O)N3)CC1	i
O=C(Nc1ccc(-c2nc3ccccc3o2)cc1)c1ccc(N2CCOCC2)c([N+](=O)[O-])c1	4.7
Clc1ccc(-c2n[nH]c3c2CCC3)cc1Cl	0.3
c1ccc(CSc2nnnn2-c2ccc3c(c2)OCCO3)nc1	i
O=C(Cn1ccc2ccccc2c1=O)N1CCN(c2cccc(Cl)c2)CC1	i
CC(O)c1cc2c(cc1NC(=O)c1cnn3c1NC(c1ccco1)CC3C(F)(F)F)OCO2 (stereo unspecified)	i
C=CCN1C(c2ccc(OCC)cc2)=CS/C1=C(\C#N)c1nnc2n1CCCCC2	3.5
COC(=O)c1sccc1NC(=O)/C=C/c1c(Cl)cccc1Cl	i
CCOC(=O)CNC(=O)CSc1nnc(-c2cccc(OC)c2)n1CC	i
O=C1CCN(C(=O)Nc2ccccc2Cl)N1	0.3
COCCOC(=O)c1c(C)nc(SCC(=O)Nc2ccc(OC)cc2)c(C#N)c1-c1ccco1	0.6
CN(C)c1nc(N)nc(CSc2ccccn2)n1	0.8
Cc1ccc(S(=O)(=O)NCC(c2ccccc2)N2CCN(CCC#N)CC2)cc1 (stereo unspecified)	i
CCOC(=O)N1CCC2(O)CCCCC2C1c1ccc(F)cc1 (stereo unspecified)	i
O=S(=O)(Nc1nc2ccccc2nc1NCc1ccco1)c1ccc(Cl)cc1	0.1
Cc1cc(N2CCN(c3cccc(C(F)(F)F)c3)CC2)n2nc(C)nc2n1	i
COc1ccc(-c2nnc(CSc3nc4ccccc4c(=O)n3CC(C)C)o2)cc1OC	i
O=C1CC(c2ccccc2)CC(O)=C1C=NCCN1CCOCC1 (stereo unspecified)	1.0

2 of the compounds above, as labelled records:
> O=S(=O)(Nc1nc2ccccc2nc1NCc1ccco1)c1ccc(Cl)cc1
  H5N1 antiviral: 0.1

> Cc1cc(N2CCN(c3cccc(C(F)(F)F)c3)CC2)n2nc(C)nc2n1
  H5N1 antiviral: i

Part of the list above in a different format:
SMILES,H5N1 antiviral
COc1ccccc1N1CCN(S(=O)(=O)c2ccc3c4c(cccc24)C(=O)N3)CC1,i
CN(C)c1nc(N)nc(CSc2ccccn2)n1,0.8
CC(O)c1cc2c(cc1NC(=O)c1cnn3c1NC(c1ccco1)CC3C(F)(F)F)OCO2 (stereo unspecified),i
COC(=O)Cn1c(CN2CCc3ccccc3C2)nc2c1c(=O)n(C)c(=O)n2C,3.6

The list continues.
SMILES	H5N1 antiviral
CNc1nnc(-c2cc3ccccc3oc2=O)s1	2.1
CC(C)c1ccccc1NC(=O)c1cnccn1	i
O=C(COc1ccccc1F)c1ccc(O)cc1O	0.2
CC(NC(=O)CSc1nc(=O)cc(N)n1CCc1ccccc1)c1ccccc1 (stereo unspecified)	i
CCOC(=O)c1nn(-c2ccc(F)cc2)c(C)c1C(C)=O	0.6
O=C(CCN1CCN(c2ccc(F)cc2)CC1)Nc1ccccc1F	0.2
Cc1ccc(-c2nc(SCC(=O)N(C)C3CCS(=O)(=O)C3)[nH]c2-c2ccc(C)cc2)cc1 (stereo unspecified)	i
Nc1c(C(=O)OCC2CCCO2)c2nc3ccccc3nc2n1-c1ccc2c(c1)OCCO2 (stereo unspecified)	i
O=C1CC(N2CCN(c3ccc(F)cc3)CC2)C(=O)N1Cc1ccc(N2CCCC2=O)cc1 (stereo unspecified)	4.8
O=C(NCc1ccccn1)c1ccccc1Cl	1.7
COC(=O)[C@H]1CCCN1C(=O)Nc1cccc(Oc2c(F)c(F)c(F)c(F)c2F)c1	i
O=C(CSc1nnc(-c2c[nH]c3ccccc23)n1CC1CCCO1)Nc1ccc2c(c1)OCCO2 (stereo unspecified)	0.2
CCOC(=O)N1CCN(C(=O)CS(=O)Cc2nc(-c3cccc(C)c3)oc2C)CC1 (stereo unspecified)	0.1
CN(C)C(=O)Oc1cccc2c(OC(=O)N(C)C)cccc12	i
O=c1[nH]c2ccccc2n1CCCOc1ccccc1	0.4
COc1cccc(CNCCOCCO)c1OC	0.1
Cc1ccc(NC(=O)N2CCC(=O)N2)cc1	1.8
CCOC(=O)C(NCc1ccco1)(NC(=O)c1ccc(OC)cc1)C(F)(F)F (stereo unspecified)	i
C=CCN1C(=O)NC(=O)/C(=C/c2cnc(SC)nc2)C1=O	i
Cn1c(Cc2ccccc2)nnc1SCCC(=O)Nc1ccccc1	1.4
c1ccc(-n2c(-c3ccncc3)nnc2N2CCOCC2)cc1	0.1
CC(C)(C)c1ccc(-c2nc3c(C#N)c(-c4ccc5c(c4)OCO5)ccn3n2)cc1	0.8
CCOC(=O)N1CCC(NC(=O)C(Cc2ccccc2)NC(=O)c2ccco2)CC1 (stereo unspecified)	0.7
O=C(O)CCn1c(-c2ccccc2)cc2c1CCCC2=O	1.0
CCC(=O)c1ccc(OCC(O)Cn2c(C)nc3ccccc32)cc1 (stereo unspecified)	i

Continuation:
SMILES	H5N1 antiviral
Cc1ccc(S(=O)(=O)N2CCCC(C(=O)NCCc3ccc4c(c3)OCO4)C2)cc1 (stereo unspecified)	i
CCOCCCNC(=O)c1c(C)c(C(=O)OCC)n(C)c1C	0.1
O=P(Cc1nnco1)(c1ccccc1)c1ccccc1	i
Cc1ccccc1Oc1ncnc2oc(-c3ccccc3)cc12	0.1
CCc1ccc(NS(=O)(=O)c2ccc3[nH]cc(C(=O)NCC4CCCO4)c(=O)c3c2)cc1 (stereo unspecified)	i
COc1cc(/C=C(/C#N)c2nc3ccccc3[nH]2)ccc1OCC(=O)Nc1ccccc1C(C)C	i
CC(=O)C(C)Oc1ncn(-c2ccccc2)n1 (stereo unspecified)	0.7

Compound activity (PubChem)
